Rango-impB inh = inhibitors of Rango-importin beta complex formation; Q14974; Potency, µM (highest dose often 92.2 µM), inactives show at the highest dose inhibition of complex formation; AID 540263; 340,000 tested, 0.031% active; Rango CFP/YFP FRET sensor + importin beta, 45 min; active = rising FRET ratio curve, often small or poorly fitted; inconclusive = mostly compound fluorescence or quenching in the first reads; inactive = flat curves in all reads;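 note: potency is the fitted concentration of half-maximal effect; 0% = DMSO wells and 100% = buffer wells lacking importin beta; nearly all actives have a fitted effect of over 15% in size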
Target sequence (Q14974 whole entry, looked up): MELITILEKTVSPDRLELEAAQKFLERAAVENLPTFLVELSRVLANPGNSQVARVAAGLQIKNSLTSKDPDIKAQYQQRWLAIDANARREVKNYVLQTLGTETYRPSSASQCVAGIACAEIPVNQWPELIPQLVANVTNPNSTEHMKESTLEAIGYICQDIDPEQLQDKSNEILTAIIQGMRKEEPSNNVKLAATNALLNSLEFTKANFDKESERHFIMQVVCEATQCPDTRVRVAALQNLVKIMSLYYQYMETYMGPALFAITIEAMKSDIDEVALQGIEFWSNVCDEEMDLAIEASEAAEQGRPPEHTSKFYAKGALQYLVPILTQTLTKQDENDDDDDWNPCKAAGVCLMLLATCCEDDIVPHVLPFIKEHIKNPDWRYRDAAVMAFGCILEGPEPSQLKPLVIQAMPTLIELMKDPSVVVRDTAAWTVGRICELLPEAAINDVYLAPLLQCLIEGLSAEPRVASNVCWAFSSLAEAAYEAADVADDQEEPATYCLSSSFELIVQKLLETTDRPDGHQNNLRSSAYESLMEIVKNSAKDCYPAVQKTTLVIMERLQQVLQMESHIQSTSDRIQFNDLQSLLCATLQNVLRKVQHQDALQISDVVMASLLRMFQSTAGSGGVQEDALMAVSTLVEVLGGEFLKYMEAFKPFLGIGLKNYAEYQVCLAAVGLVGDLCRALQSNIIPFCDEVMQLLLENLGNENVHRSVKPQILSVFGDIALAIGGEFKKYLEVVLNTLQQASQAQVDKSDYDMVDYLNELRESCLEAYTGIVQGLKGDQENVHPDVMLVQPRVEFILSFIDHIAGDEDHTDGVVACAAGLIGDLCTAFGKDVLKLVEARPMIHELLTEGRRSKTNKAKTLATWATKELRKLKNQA
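FRET biosensor (snurportin 1 IBB flanked by EYFP and cerulean), 50 nM, with compound 5 min, then 0.125 microM importin beta in PBS, 1 mM DTT, 0.02% Tween-20, 0.1% BSA. CFP/YFP ratio read after 45 min at room temperature; pre-read flags interference.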
GLA inh pH 4.5 = alpha-galactosidase A (human) inhibition, pH 4.5 | P06280 | purified enzyme, 4-MU-alpha-Gal fluorescence, pH 4.5 | activity change, negative = inhibition, % at 105 µM | 230,000 tested, under 10 active | AID 1467; inconclusive = small, poorly fitted or top-dose-only inhibition, or a rising curve; inactive = flat fitted curve, though single readings scatter; no compound was filed as active;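 note: 0% = full activity with enzyme and -100% = basal without enzyme; dose as in the result columns while the protocol names 77 µM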
miR-21 FLuc = raises the signal of a miR-21 reporter | HeLa miR-21 FLuc reporter, luciferase, 48 h | Potency, µM (doses to about 38.3 µM), for inactives: at the top dose reporter change, positive = more light | 340,000 tested, under 10 active; active = well fitted rising curve with a large enough effect; inconclusive = small, poorly fitted or top-dose-only effect; inactive = no such curve, though single readings can be large or run the other way;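 note: % of control where 0% means no effect; miR-21 action dims this reporter so a rising signal means less miR-21 action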
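HeLa cells stably expressing CMV-driven firefly luciferase with a downstream miR-21 binding sequence, endogenously expressing miR-21, were treated with titrations (up to about 40uM final) for 48 hours at 37 degree Celsius. Luciferase luminescence was read after lysis.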
Rango dissoc inh = inhibition of RanGTP-driven Rango-importin beta dissociation; AID 540253; O95149+P62826; Potency, µM (doses to about 46.1 µM), inactives show at the highest dose activity change, negative = inhibition; Biochemical FRET Rango-importin beta, RanGTP-induced dissociation; 340,000 tested, 0.071% active; active means falling FRET ratio curve, often poorly fitted, with flat reads before Ran was added; inconclusive means other falling curves, or compound fluorescence or quenching; inactive means flat or rising ratio curve;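 note: potency is the fitted concentration of half-maximal effect; % of control where 0% means no effect; nearly all actives have a fitted effect of over 45% in size; -100% = wells without RanGTP and RCC1; the record marks most hits as doubtful in a second field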
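FRET read at 45 min, room temperature: inhibitors block the CFP/YFP signal rise when RanGTP (0.6 uM Ran, 2 mM GTP, 0.2 uM RCC1) frees Rango (0.1 uM) from importin beta (0.25 uM). Pre-read after 5 min compound exposure flags interference.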
* = called active by the depositor; ? = inconclusive; . = not tested or not shown; & = joins results of further samples.

SMILES	Rango-impB inh	GLA inh pH 4.5	miR-21 FLuc	Rango dissoc inh
O=C(O)C1CCCNC1 (stereo not given)	0.1%	-18&-3&-15	0%	2%
COc1ccc(C(=O)NC(=S)Nc2ccccc2N2CCOCC2)cc1[N+](=O)[O-]	-4.7%	-9	-1%	-2%
N#Cc1ccc(COC(=O)c2ccc(N3CCCC3)c([N+](=O)[O-])c2)cc1	1.3%	-1	-8%	-10%
O=C1OCCN1C(=O)[C@H]1[C@H](c2ccc([N+](=O)[O-])cc2)C(c2ccc(F)cc2)=NN1c1ccc(Br)cc1	0.6%	-14	.	-4%
CCOc1ccc(N2CC(C(=O)NCc3ccccc3)CC2=O)cc1 (stereo not given)	1.0%	3	-1%	-6%
CC1=C(C(=O)Nc2cccc(C(=O)NC(C)C)c2)SCCO1	-2.3%	.	0%	-1%
Cc1nnc(SCCC(=O)Nc2ccccc2Cl)o1	-0.5%	.	-2%	?
CS(=O)(=O)c1ccc(Cl)c(NC(=O)C2CCCN(C(=O)c3ccc(Cl)cc3)C2)c1 (stereo not given)	2.7%	.	.	-1%
O=C(c1ccccc1)N1CCN(C(=O)C2CC2)CC1	-0.3%	.	0%	27%
CCNS(=O)(=O)c1ccc(Br)c(C(=O)OC(C)C(=O)NCC2CCCCC2)c1 (stereo not given)	-2.4%	.	.	1%
CC(=O)C1=C(O)C(=O)N(Cc2ccco2)C1c1ccc(F)cc1 (stereo not given)	3.9%	-28	-3%	-9%
O=C(NCCN=C1NS(=O)(=O)c2ccccc21)c1ccco1	-3.6%	-15	-2%	7%
Cn1c(=O)c2ncn(CC(=O)Nc3ccc4c5c(cccc35)CC4)c2n(C)c1=O	-2.4%	-17	-11%	-3%
Cc1c(C(=O)OC/C(O)=C(\C#N)c2nc3ccccc3[nH]2)oc2ccccc12	-2.7%	0	0%	?
CCCCn1c(N)c(N(Cc2ccccc2OC)C(=O)c2sccc2C)c(=O)[nH]c1=O	1.6%	.	.	21%
CCOC(=O)c1c(NC(=O)COc2ccccc2F)sc2c1CC(C)(C)NC2(C)C	-3.6%	.	.	21%
C/C(CC(=O)Nc1ccccc1C)=N\NC(=O)Cc1csc(N)n1	2.6%	-1	-11%	1%
CN(C)c1ccnc(Oc2ccc(F)cc2)c1C#N	-6.1%	-24	-34%	-2%
Cc1ccc(C)c(N2N=C(C(=O)N(CC(C)C)c3c(N)n(Cc4ccccc4)c(=O)[nH]c3=O)CCC2=O)c1	?	.	1%	-19%
O=C(O)CCCN1C(=O)/C(=C\c2ccc(-c3nc4ccccc4s3)o2)SC1=S	?	-10	-26%	?
COCC1CCCN(C(=O)c2ccc3oc(C(C)C)nc3c2)C1 (stereo not given)	1.5%	.	-9%	-1%
CCN(CC)S(=O)(=O)c1ccc(C(=O)Nc2cc3oc4ccccc4c3cc2OC)cc1	?	6	-4%	-8%
CCOc1ccc2c(c1)C(=NNC(=O)c1ccccn1)c1cc(OCC)ccc1-2	1.7%	.	.	24%
COC(=O)C1=C(CN2CCCc3ccccc32)NC(=O)NC1c1ccc(F)cc1 (stereo not given)	?	-4	15%	11%
COc1cc(/C=C2\SC(=S)N(c3cccnc3)C2=O)ccc1O	7.4%	1	1%	?
Cc1nc(SCC(=O)Nc2c(C)n(C)n(-c3ccccc3)c2=O)n[nH]1	3.1%	-4	-9%	-10%
COc1cc2c(cc1OC)CN(c1nc(CN3CCCCC3)nc3sc4c(c13)CCCC4)CC2	-1.9%	-9	5%	-14%
O=C(Nc1cnc2ccccc2c1)N1CCCCC1	2.2%	7	-24%	-8%
CCOc1ccc(-c2cc(CCCC(=O)NCCc3ccc(OC)c(OC)c3OC)no2)cc1	-3.7%	6	?	1%
COc1ccc(-c2csc(NC(=O)CSc3nnnn3C)n2)cc1OC	-2.2%	.	.	9%
CN(c1ccc(F)cc1)S(=O)(=O)c1ccc(Cl)c(C(=O)Nc2ccc3c(c2)CCC3)c1	-0.3%	-6	-1%	-16%
O=C(O)C12C3CCC(O3)C1(C(=O)O)C1CCC2O1 (stereo not given)	-1.4%	.	.	16%
CC(=O)OC1c2ccccc2C(=O)N1Cc1ccccc1 (stereo not given)	-0.4%	0	1%	8%
O=c1[nH]cc(C(F)(F)F)cc1NS(=O)(=O)c1ccc([N+](=O)[O-])cc1	-2.3%	1	1%	-5%
CCCCNC(=O)C1CCN(Cc2ccc(OCc3ccccc3)cc2)CC1	1.3%	-24	-42%	-16%
COc1cccc(-n2ccnc2SCC(=O)Nc2cc(C)on2)c1	-2.9%	4	-4%	-6%
CC(C)(C)OC(=O)NN=C(c1ccc(O)cc1)c1ccc(O)cc1	-1.2%	.	-2%	5%
CCN(CC)C(=O)/C=C/c1ccc(OC)c(S(=O)(=O)N2CCCCC2)c1	7.0%	-2	6%	6%
CCOc1ccc(CNc2cccc(SC)c2)cc1	0.7%	3	0%	4%
CC1=CCC2COC(c3ccc[n+](Cc4ccccc4)c3)C1C2 (stereo not given)	-1.8%	5	12%	-7%
Cc1cccc(-n2c(=O)[nH]c3c(C(N)=O)nc(-c4ccccc4Cl)nc32)c1	-0.5%	22	-2%	?
O=C(CN(C(=O)c1ccccc1)C(=O)c1ccccc1)OCc1ccccc1	-1.4%	.	.	7%
CCOC(=O)c1c[nH]c2c(C(F)(F)F)cccc2c1=O	-1.8%	0	-4%	2%
C=CCSc1ccc(S(=O)(=O)N2CCN(C)CC2)cn1	-2.2%	.	.	-5%
Cc1ccc(Cl)cc1NC(=O)CCS(=O)(=O)c1cccc2nonc12	0.4%	.	1%	-8%
CC(C)(C)C(=O)Nc1nnc(SCc2ccc(F)cc2)s1	1.5%	3	-40%	4%
CCOC(=O)Cn1nnc2c(sc3nc4c(c(-c5ccccc5)c32)CCC4)c1=O	0.1%	-4	-1%	-15%
CCc1ccc(-n2c(SCc3cc(=O)n4cc(Br)ccc4n3)nc3[nH]ncc3c2=O)cc1	1.8%	-4	-1%	-12%
O=S(=O)(NC1CCCCC1N1CCN(c2ccccc2F)CC1)c1ccc(Cl)cc1 (stereo not given)	-14%	.	16%	-1%
CC(C)CNC(=O)c1cc([N+](=O)[O-])ccc1N1CCOCC1	6.2%	2	-4%	-1%

Fetched by structure from the entries so far, 5 records:
SMILES	Rango-impB inh	GLA inh pH 4.5	miR-21 FLuc	Rango dissoc inh
O=C(NCCN=C1NS(=O)(=O)c2ccccc21)c1ccco1	-3.6%	-15	-2%	7%
CN(C)c1ccnc(Oc2ccc(F)cc2)c1C#N	-6.1%	-24	-34%	-2%
CCCCNC(=O)C1CCN(Cc2ccc(OCc3ccccc3)cc2)CC1	1.3%	-24	-42%	-16%
O=C(O)C12C3CCC(O3)C1(C(=O)O)C1CCC2O1 (stereo not given)	-1.4%	.	.	16%
Cc1c(C(=O)OC/C(O)=C(\C#N)c2nc3ccccc3[nH]2)oc2ccccc12	-2.7%	0	0%	?

Additional results
SMILES	Rango-impB inh	GLA inh pH 4.5	miR-21 FLuc	Rango dissoc inh
COc1ccc(S(=O)(=O)N2CCOC23CCN(S(=O)(=O)c2ccc(C)cc2)CC3)cc1	2.0%	.	.	22%
CCc1cccc(C)c1NC(=O)c1cc(=O)[nH]c2ccc(S(=O)(=O)N3CCOCC3)cc12	-1.1%	.	.	-12%
Cc1cccc(NC(=O)Cc2ccc(F)cc2)c1	0.7%	4	-24%	0%
CCC(CC)C1=NN2C(=N)/C(=C/c3ccc(OC(=O)c4ccco4)cc3)C(=O)N=C2S1	?	.	-2%	-13%
CCOc1ccc(-c2ncncc2-c2ccccc2OC)c(O)c1	0.3%	.	12%	-11%
O=C(CSc1nnc(CNC(=O)c2c(F)cccc2Cl)o1)NCc1ccccc1	0.1%	.	9%	2%
O=C(c1ccccc1)N(C(=O)c1ccccc1)N1CCCC1	-0.7%	.	.	2%
CC(C)(C)c1nc[nH]c(=O)c1Br	0.2%	2	-1%	1%
CCCC1=NN(c2ccc([N+](=O)[O-])cc2)C(=O)/C1=C\N(C)C	-3.0%	-14	-57%	-2%
CCCn1c(=O)c2c(C(F)(F)F)cc(-c3cccs3)nc2n(CCC)c1=O	-4.5%	16	-11%	?
CC(C)(C)NC(=O)C(=O)NNC(=O)c1ccc(C(C)(C)C)cc1	-0.7%	8	-8%	4%
CCCCN(C(=O)C1=NN(c2cc(C)ccc2C)C(=O)CC1)c1c(N)n(CCC)c(=O)[nH]c1=O	-0.1%	.	.	-5%
Cc1ccc(OCCn2cc(Br)c(=O)[nH]c2=O)cc1	-3.4%	7	-13%	-8%
CCc1ccc(N2C(=O)CC(Cn3nc(C)cc3C)C2=O)cc1 (stereo not given)	4.3%	-2	7%	13%
Cc1ccccc1NC(=O)N(O)C1(C#N)CCCCC1	-0.5%	.	.	4%
N#CC(c1ccc(Cl)cc1)N1CCOCC1 (stereo not given)	-0.3%	-4	1%	2%
O=C1Nc2ccccc2Nc2ccc([N+](=O)[O-])cc21	-0.8%	.	2%	-3%
O=C(CC12CC3CC(CC(C3)C1)C2)N1CCN(S(=O)(=O)c2cccs2)CC1	0.3%	2	-7%	-8%
O=S(=O)(Nc1cccc(-n2cnnn2)c1)c1ccc(F)cc1	0.6%	.	.	-13%
CCOc1ncccc1C(=O)Nc1ccccc1N1CCOCC1	-1.0%	.	.	17%
Cn1c(Cc2ccccc2)nnc1SCc1nc2ccccc2c(=O)[nH]1	3.4%	-17	0%	3%
O=C(CN1C(=O)COc2ccccc21)NCCN1CCOCC1	2.9%	.	-3%	18%
Cc1nnc(NC(=O)CSc2ccccn2)s1	?	3	-1%	33%
COC(=O)C1=C(C)N(Cc2ccc(C)cc2)C(=O)/C1=C\c1ccc(O)c(OC)c1	?	0	-6%	?
O=C(O)Cc1n[nH]c(=O)c2ccccc12	0.0%	-2	1%	-14%
CCCCNC(=O)Nc1cc(C(=O)OC)ccc1Cl	4.0%	0	-7%	11%
Cc1ccc(OCC(=O)N/N=C\c2c(C)[nH]n(-c3ccccc3)c2=O)c([N+](=O)[O-])c1	-1.0%	-2	27%	18%
O=C(Nc1ccc(S(=O)(=O)Nc2ncccn2)cc1)c1ccc(N2CCCC2=O)cc1	-2.0%	11	0%	9%
O=C1C2C3c4ccccc4C(Br)(c4ccccc43)C2C(=O)N1c1ccccc1O (stereo not given)	-1.3%	1	20%	5%
Cc1c(Cl)cccc1NC(=S)NCCCN(C)C	0.4%	0	-4%	8%
CCOC(=O)C(C)Sc1nc2c([nH]c3ccccc32)c(=O)n1C (stereo not given)	?	7	6%	-4%
CC(C)(C)NCCCOc1ccc(Cl)cc1C(C)(C)C	.	9	-7%	.
CCOc1ccccc1-n1cnc(C#N)c1N	-1.0%	5	-1%	13%
NC(=O)[C@H]1CC2(CC(c3cccc(NC(=O)COc4ccc(Cl)cc4)c3)=NO2)CN1C(=O)C(c1ccccc1)c1ccccc1 (stereo not given in full)	3.5%	-6	?	1%
O=C(COC(=O)CCc1ccc(S(=O)(=O)N2CCOCC2)cc1)Nc1ccccc1[N+](=O)[O-]	-3.2%	.	.	-16%
CCOc1ccccc1NC(=O)CSc1nnc(CNC(=O)COc2ccc(Cl)cc2)o1	?	0	-2%	-14%
CCOc1ccc(S(=O)(=O)NCCC(=O)NC2CCN(Cc3ccccc3)CC2)cc1	3.7%	.	.	26%
Cn1c(O)c(N=Nc2ccccc2)c2ccccc21	-0.8%	.	-7%	-5%
N#C/C(=C\c1ccccc1Cl)C(=O)NC(=O)Oc1ccccc1	?	5	0%	2%
COc1cccc(CC(=O)OCC(=O)NCC(=O)Nc2cccc(C)c2C)c1	0.2%	.	.	1%
CC1(C)Cc2c(sc(NC(=O)/C=C/C(=O)O)c2C#N)CO1	0.3%	-19	-9%	-1%
O=C(COC(=O)C1CC2C=CC1C2)Nc1ccc2c(c1)OC(F)(F)O2 (stereo not given)	4.1%	-1	-7%	-15%
O=C(COC(=O)c1cccc([N+](=O)[O-])c1)NCC1CCCO1 (stereo not given)	-4.4%	-12	-1%	11%

This is a subset; count on the stated rates, not on these rows.
